YopH PTP inh = YopH (Yersinia) phosphatase inhibition; fluorescence Ex485/Em525; inhibition, %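 (about 10 µM by stock and volumes)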; hit rate 0.16% among 140,000; AID 898;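 active = inhibition of 50% or more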;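 note: controls were vehicle for no effect and minimum signal wells for full effect; inactives centre near -20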
Mtb bLac sens = beta-lactam sensitization of Mtb H37Rv; M. tuberculosis H37Rv growth with meropenem, percent inhibition; hits of this screen are not shown here; inhibition, % at 25 µM; hit rate 0.27% among 330,000;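 active = about 74% or more and at least 40 points above the plate without the antibiotic, then above 30% in a dose series; inconclusive = first-round hits that could not be retested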;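 note: growth measured after seven days incubation then overnight dye step; 0% = bacteria only wells and 100% = bacteria with antibiotic; twin plates without the antibiotic show which effects depend on it; some results filed as inactive read as strong as hits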
RecA splice inh = Mtb RecA intein splicing inhibition; P9WHJ3; cell-free RecA intein splicing, fluorescence; inhibition, %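 (about 9 µM by stock and volumes)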; hit rate 0.75% among 290,000; in the data active = inhibition above about 30%; inconclusive = no clear call, values can overlap the other calls;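 note: 0% = vehicle wells and 100% = reference inhibitor control wells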
Target sequence (P9WHJ3 whole entry, looked up, canonical isoform): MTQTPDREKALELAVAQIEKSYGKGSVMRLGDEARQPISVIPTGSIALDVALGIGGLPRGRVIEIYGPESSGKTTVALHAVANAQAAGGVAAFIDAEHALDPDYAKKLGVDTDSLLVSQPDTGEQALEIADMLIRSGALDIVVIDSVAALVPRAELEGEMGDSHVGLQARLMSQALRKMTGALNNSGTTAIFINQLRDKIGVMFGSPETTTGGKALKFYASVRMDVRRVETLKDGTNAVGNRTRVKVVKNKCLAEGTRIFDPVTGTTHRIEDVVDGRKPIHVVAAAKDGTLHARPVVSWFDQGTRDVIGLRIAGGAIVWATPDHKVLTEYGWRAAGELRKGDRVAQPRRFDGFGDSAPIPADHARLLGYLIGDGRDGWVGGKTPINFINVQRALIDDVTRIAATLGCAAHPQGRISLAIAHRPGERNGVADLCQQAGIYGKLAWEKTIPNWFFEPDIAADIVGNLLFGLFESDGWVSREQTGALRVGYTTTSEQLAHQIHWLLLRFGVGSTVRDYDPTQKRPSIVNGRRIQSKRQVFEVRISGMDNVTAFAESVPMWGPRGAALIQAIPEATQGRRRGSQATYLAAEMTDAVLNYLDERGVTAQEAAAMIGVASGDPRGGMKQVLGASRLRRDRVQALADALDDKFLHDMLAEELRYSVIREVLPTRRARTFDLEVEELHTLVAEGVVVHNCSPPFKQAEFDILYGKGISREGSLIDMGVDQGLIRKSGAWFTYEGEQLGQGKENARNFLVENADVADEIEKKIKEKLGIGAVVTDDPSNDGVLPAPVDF
Arbovirus anti = antivirals against arbovirus infection | hit rate 0.37% among 200,000 | arbovirus infection cell-based antiviral screen | AID 1251 | inhibition, % at 10 µM;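 active = inhibition from about 30%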;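 note: bluetongue infection of BSR cells; cell survival read as ATP light after 72 h; 0% = infected wells without compound and 100% = uninfected wells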
Mtb H37Rv = M. tuberculosis H37Rv growth inhibitors, H37Rv strain (AID 1626); M. tuberculosis H37Rv growth inhibition; higher % means a stronger effect; inhibition, % at 10 µM, or IC50 in µM where a hit was titrated; hit rate 0.95% among 220,000;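 active = confirmed in a dose series; inconclusive = inhibition above 80% but not taken into the dose series; inactive = below 80% or under 30% at every dose of the series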;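 note: bacteria incubated seven days before Alamar blue readout; 0% = bacteria only wells and 100% = bacteria with antibiotic wells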
Arbovirus anti repeat = second read-out of Arbovirus anti, no call of its own (marks repeat the call); inhibition, %; measured here: 10K subset replicate screen; many hits read low in the repeat;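 first of two repeat runs on a subset; 0% = infected and 100% = uninfected wells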
Active calls of the source: *; ? = inconclusive; . = no result given. Only part of the results is shown; the hit share may differ from the screen's.

SMILES | YopH PTP inh | Mtb bLac sens | RecA splice inh | Arbovirus anti | Mtb H37Rv | others
COc1ccc(CCNC(=O)CNCC(c2ccccc2)N(C)C)cc1OC (stereo not given) | . | 7 | -1.6 | . | .
CC1(C)Oc2ccc(C(=O)NC3CCCC3)cc2N(CC(=O)N2CCOCC2)C1=O | -38 | -12 | -1.4 | 5 | -4%
Cc1ccc(CSc2ncccc2C(=O)O)cc1 | -1 | 2 | -5.1 | 16 | -6%
O=C(CSCCc1ccccn1)Nc1cccnc1 | -5 | -22 | -0.4 | 8 | -5%
COC(=O)CCc1sc(Nc2ccc(Br)cc2)nc1-c1ccc(OC)cc1 | -22 | 96 | 1.6 | 3 | 74%
CCOc1ccccc1CN1CCC(n2nccc2NC(=O)C2CCCC2)CC1 | . | -5 | 2.1 | . | .
Cc1ccc(C2CC(C(F)(F)F)n3nc(C(=O)NCCN4CCOCC4)cc3N2)cc1 (stereo not given) | -38 | -8 | 0.6 | -2 | -11%
Cc1ccc(NC(=O)c2ccc(OC(=O)COc3ccc(Cl)cc3C)cc2)cc1 | -33 | 6 | 1.7 | 0 | 0%
CCOCCCNC(=O)CCCOc1ccccc1 | 5 | -1 | -0.9 | -3 | -4%
C/C(=N\NC(=O)c1cccc(C)c1)c1cccc(NC(=O)c2ccco2)c1 | -18 | 4 | 1.5 | -11 | -2%
COc1ccccc1C(=O)NCCC(=O)NNC(=O)c1ccccc1O | . | -3 | -4.8 | . | .
O=C(c1ccc(F)cc1)N1C2CCC1CC(O)(c1ccc(F)cc1)C2 (stereo not given) | -56 | -14 | -0.2 | 5 | 1%
CC1CC(C)CN(CCOCCSc2ccc(Cl)cc2)C1 (stereo not given) | . | -7 | -0.9 | 5 | 3%
Cc1cnnn1-c1cccc([N+](=O)[O-])c1 | . | -5 | -0.3 | 2 | 6%
CCOc1ccc(-n2nc3c(=O)[nH]nc(C)c3c2C)cc1 | -25 | 1 | -2.1 | -1 | -9%
O=C(NC1CCCCC1)c1cccc(Cn2cc(Cl)cn2)c1 | -19 | -4 | 3.2 | -4 | -2%
CC(=O)Nc1ccc(Oc2ccc3c(c2)C(=O)NC3=O)cc1 | . | -3 | -0.2 | . | .
COC(=O)CC(c1ccccc1F)N1Cc2ccccc2C1=O (stereo not given) | . | -10 | 0.7 | . | .
CCN(C(=O)CSc1n[nH]c(-c2cccs2)n1)C1CCS(=O)(=O)C1 (stereo not given) | . | -5 | -0.3 | . | -9%
COc1ccc(N/C=C/C(=O)c2ccc(Oc3ncccn3)cc2)cc1 | -31 | 90 | -6.1 | -5 | 7%
CCOC(=O)Cc1csc(NC(=O)C2C3C=CC(C3)C2C(=O)O)n1 (stereo not given) | -17 | -4 | 11 | 8 | -6%
O=S(=O)(c1ccsc1)N1CC=C(c2ccccc2)CC1 | . | 54 | 1.8 | . | .
CCn1c(C)nc2cc(C(=O)NNC(=S)Nc3ccc(C)cc3)ccc21 | . | -2 | 0.5 | . | 9%
CCOc1ccc(-c2nc(CSCC(=O)NCc3ccco3)c(C)o2)cc1 | -24 | -9 | -1.9 | 3 | -10%

The final 6 entries of the section above come first, to join the parts.
SMILES | YopH PTP inh | Mtb bLac sens | RecA splice inh | Arbovirus anti | Mtb H37Rv | others
CCN(C(=O)CSc1n[nH]c(-c2cccs2)n1)C1CCS(=O)(=O)C1 (stereo not given) | . | -5 | -0.3 | . | -9%
COc1ccc(N/C=C/C(=O)c2ccc(Oc3ncccn3)cc2)cc1 | -31 | 90 | -6.1 | -5 | 7%
CCOC(=O)Cc1csc(NC(=O)C2C3C=CC(C3)C2C(=O)O)n1 (stereo not given) | -17 | -4 | 11 | 8 | -6%
O=S(=O)(c1ccsc1)N1CC=C(c2ccccc2)CC1 | . | 54 | 1.8 | . | .
CCn1c(C)nc2cc(C(=O)NNC(=S)Nc3ccc(C)cc3)ccc21 | . | -2 | 0.5 | . | 9%
CCOc1ccc(-c2nc(CSCC(=O)NCc3ccco3)c(C)o2)cc1 | -24 | -9 | -1.9 | 3 | -10%
CCC(C)NC(=O)CSc1nc2ccccc2c(=O)n1Cc1ccc(OC)cc1 (stereo not given) | -20 | -3 | 0.3 | 9 | 4%
CC(C)(C)OC(=O)N/N=C/c1ccc(C(=O)O)cc1 | -13 | 1 | -2.7 | -3 | -5%
COc1ccc(C2/C(=C(/O)c3ccccc3)C(=O)C(=O)N2CO)cc1 (stereo not given) | -45 | -7 | 3.6 | 4 | -3%
CCOc1ccc(S(=O)(=O)N2CCC(C(=O)OC(C)C(=O)N3CCOCC3)CC2)cc1 (stereo not given) | . | 0 | -1.3 | . | .
CC(Cc1cccnc1)NC(=O)c1cc(COc2c(F)cccc2F)on1 (stereo not given) | . | 3 | -2.6 | . | .
NC(=O)COc1cccc2cccnc12 | -18 | -12 | 0.2 | 11 | -9%
Cc1cc2oc(=O)cc(CN(C)Cc3ccc(OC(F)F)cc3)c2cc1Cl | . | -1 | 5.4 | . | .
COc1cccc(-n2ccnc2SCC(=O)N2CCc3ccccc32)c1 | -32 | -4 | -14 | 9 | -5%
COc1ccc2c(c1)C(C)=CC(C)(C)N2C(=O)Nc1ccccc1 | -24 | -1 | 1.4 | 0 | 7%
O=C(Nc1cccc(F)c1)NC1(C(=O)N2CCN3CCCC3C2)CCCCC1 (stereo not given) | -16 | -14 | -1.1 | 2 | 5%
Cc1cc(OCC(=O)Nc2ccc(CN3CCOCC3)cc2)ccc1Cl | . | 11 | 0.5 | . | .
COc1ccc(NC(=O)CSc2ccc3nnc(-c4ccccn4)n3n2)c(OC)c1 | . | ? | 3.7 | . | .
Cc1ccccc1OCCSCc1nc2ccccc2[nH]1 | -5 | 5 | 5.9 | 66* | 7%
Cc1cc(NC(=O)CCN2CCN(Cc3ccccc3)CC2)ccc1Br | . | 23 | 2.3 | . | .
O=C(N=Nc1c(O)[nH]c2ccccc12)c1cccc(S(=O)(=O)N2CCCCC2)c1 | -40 | -4 | 0.9 | -5 | 0%
O=C(Oc1ccc(-c2nnco2)cc1)N1CCCCC1 | -38 | 32 | -1.5 | 5 | 9%
CN(C)C(=O)c1ccc(NC(=O)COC(=O)CC23CC4CC(CC(Br)(C4)C2)C3)cc1 | . | -10 | -1.7 | . | .
Cc1noc(C)c1S(=O)(=O)N1CCCC(C(=O)NC2CCCCC2)C1 (stereo not given) | -14 | 0 | -1.2 | 3 | -2%
CC1(c2nnc(-c3ccccc3)o2)CC(c2ccc(F)cc2)=NO1 (stereo not given) | . | -3 | 3.5 | . | -2%
COc1cccc(COC(=O)C2CCN(C(=O)c3ccc(F)cc3)CC2)c1OC | . | 0 | -2.6 | . | .
CCCc1nnc(NC(=O)CCC(=O)N2CCN(c3ccccc3)CC2)s1 | . | 2 | -2.1 | . | .
COCCNC(=O)Cn1cnc2ccc(S(=O)(=O)N3CCC(C)CC3)cc2c1=O | -2 | 0 | 1.8 | 5 | -2%
C=CCC(NCc1ccccc1)c1ccc(C)o1 (stereo not given) | -19 | -8 | -1.5 | 6 | -1%
Cc1c(C(=O)NC(=S)Nc2ccc3c4c(cccc24)CC3)cccc1[N+](=O)[O-] | -34 | 49 | 1.8 | -8 | 0%
CCOC(CNC(=O)CN1C(=O)COc2ccc(S(=O)(=O)N3CC(C)CC(C)C3)cc21)OCC (stereo not given) | . | ? | 0.7 | . | .
O=C(Nc1cccc(C(=O)Nc2cccc(C(F)(F)F)c2)c1)c1ccc(=O)[nH]c1 | . | 2 | -0.3 | . | .
O=C1CCC(=O)N1c1ccc(CSc2nnnn2C2CCCCC2)cc1 | -28 | -6 | -0.8 | 0 | -8% | Arbovirus anti repeat=1
CCOC(=O)N1CCN(S(=O)(=O)c2ccc(C(=O)Nc3nnc(CSC)o3)cc2)CC1 | -13 | 2 | 1.3 | 7 | -4%
Fc1ccc(CSc2nnc(-c3cc4c(s3)-c3ccccc3CC4)o2)cc1 | -13 | 90 | -7.3 | -20 | 15%
Cc1ccsc1/C=N/NC(=O)Cc1ccc(Cl)cc1 | . | -11 | 7.2 | . | -5%
Cn1c(/C(C#N)=C/c2ccncc2)nc2ccccc21 | . | 63 | 5.9 | 3 | 2%
CCOc1cc2c(cc1OCC)-n1cccc1C(c1ccc(OC)c(OC)c1)NC2 (stereo not given) | . | 7 | -2.6 | . | .
CC(=O)c1c(C(C)=O)c(C)n(NC(=O)c2cccnc2)c1C | -10 | 0 | . | 0 | -7%
Cc1ccc(/C=N/NC(=O)c2c(-c3ccccc3)noc2C)o1 | -9 | -1 | 0.4 | 8 | 2%
Cc1nnc(SCc2nc3sc4c(c3c(=O)[nH]2)CCCC4)[nH]c1=O | . | -3 | -2.2 | 1 | 4%
Cc1ccc(S(=O)(=O)N(C)c2ccc(OCC(=O)O)cc2)cc1 | -23 | -6 | -3.7 | 7 | -3%
Cc1nc(-c2ccccc2)sc1-c1nc(-c2cccnc2)ncc1S(=O)(=O)c1ccccc1 | -41 | -9 | 12 | -9 | -7%
Cc1ccc(NC(=O)CN2C(=O)CCS(=O)(=O)c3ccccc32)cc1Cl | . | 0 | 2.9 | . | .
Cc1ccc2cc3cc(C(=O)N4CC(C)CC(C)C4)oc3nc2c1 (stereo not given) | 6 | 65 | . | -21 | 8%
Cn1c(N)c(C(=O)CSc2nc3ccccc3[nH]2)c(=O)n(C)c1=O | . | -4 | -1.7 | . | -9%
COc1ccc(/C=N/NS(=O)(=O)c2ccccc2)cc1OC(=O)c1ccc(C)cc1 | -36 | 3 | 8.9 | -5 | .
CC(=O)Nc1ccc(NC(=O)C(C)OC(=O)C2(c3ccc(Cl)cc3)CCCC2)cc1 (stereo not given) | -27 | 2 | -2.7 | -7 | -6%
CN(C)S(=O)(=O)c1cccc(NC(=S)Nc2cc(Cl)cc(Cl)c2)c1 | -38 | 91 | 11 | -14 | 9%
Cc1cc(=O)cc(C)n1-c1ccc(Cl)cc1 | . | -1 | -1.8 | 4 | 1%
COc1ccc2[nH]cc(C(=O)CN3CCCCC3)c2c1 | -2 | 2 | 0.2 | 3 | -1%
CCOC(=O)CCN(Cc1cccs1)S(=O)(=O)c1ccc(Cl)cc1 | -20 | 4 | 3.4 | -9 | 1%
O=[N+]([O-])c1cccc(/C=N/Nc2nc(NCc3ccccc3)nc(N3CCOCC3)n2)c1O | . | 93 | -0.9 | -35 | ?
O=C(NCc1ccco1)C1OCCc2ccccc21 (stereo not given) | -45 | -4 | 3.4 | -3 | -7%

5 neighbouring records out of the list so far, quoted:
SMILES | YopH PTP inh | Mtb bLac sens | RecA splice inh | Arbovirus anti | Mtb H37Rv | others
Cc1nc(-c2ccccc2)sc1-c1nc(-c2cccnc2)ncc1S(=O)(=O)c1ccccc1 | -41 | -9 | 12 | -9 | -7%
Cc1ccc(NC(=O)CN2C(=O)CCS(=O)(=O)c3ccccc32)cc1Cl | . | 0 | 2.9 | . | .
Cc1ccc2cc3cc(C(=O)N4CC(C)CC(C)C4)oc3nc2c1 (stereo not given) | 6 | 65 | . | -21 | 8%
Cn1c(N)c(C(=O)CSc2nc3ccccc3[nH]2)c(=O)n(C)c1=O | . | -4 | -1.7 | . | -9%
COc1ccc(/C=N/NS(=O)(=O)c2ccccc2)cc1OC(=O)c1ccc(C)cc1 | -36 | 3 | 8.9 | -5 | .

Carrying on.
SMILES | YopH PTP inh | Mtb bLac sens | RecA splice inh | Arbovirus anti | Mtb H37Rv | others
CCOc1ccc(NC(=O)CCc2nnc3ccc(N4CCC5(CC4)OCCO5)nn23)cc1 | . | -5 | -0.8 | . | .
CCc1ccc(CN(C)C(=O)CCc2nnc(COc3ccccc3)o2)cc1 | . | 4 | 3.1 | 4 | 4%
Cc1ccc(C)n1-n1c(C)nc2scc(-c3cccs3)c2c1=O | -8 | 0 | 10 | -22 | 10% | Arbovirus anti repeat=-15
Cc1cccc(CSCc2ccc(C(=O)O)o2)c1 | . | 6 | -1.1 | . | .
CCCN(CCC)CC(O)CN1C(=O)N(CN2C(=O)N(CC(O)CN(CCC)CCC)C(=O)C2(C)C)C(C)(C)C1=O (stereo not given) | . | -5 | 0.4 | 10 | -6%
Cc1cccc(NC(=O)N2CCC(NC(=O)C3CCCCC3)CC2)c1 | . | 0 | 0.9 | . | .
Cc1ccc(NC(=O)c2ccc(Nc3ccccc3F)nc2)cc1 | -9 | 3 | -2.4 | 3 | 9%
COc1ccc(NC(=O)C2CC(c3ccc(OC)c(OC)c3)=NO2)cc1OC (stereo not given) | -9 | -8 | 3.6 | 6 | -9%
Cc1cc(N2CCN(c3nc4ccccc4s3)CC2)n2ncnc2n1 | -23 | -4 | -1.1 | 5 | -6%
